NPYLR7 ag: activates Aedes aegypti NPYLR7 receptor. HEK293T NPYLR7/Galpha15, GCaMP6s calcium fluorescence. activation, % at 10 µM. hit rate 0.15% among 270,000. AID 1259423; in the data active = activation above about 40%;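 also: 0% = vehicle and 100% = reference agonist at the receptor; some compounds past the cut are filed as inactive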
NPYLR7 ag max-min: recorded beside NPYLR7 ag, whose call it bears; activation, %; measured here: Max-Min RFU normalised activation; some inactives read as strong as hits;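 span of the calcium signal over five minutes; 0% = vehicle and 100% = native peptide agonist; compound fluorescence can raise it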
* marks the source's active call; other numbers are inactive results; & = joins results of further samples. Some of the compounds tested; rates above refer to the full screens.

SMILES | NPYLR7 ag | NPYLR7 ag max-min
CC(=O)c1sc(N)nc1C | -10&1 | -15&3
CCN(CC)CCCNc1nc(N)c([N+](=O)[O-])c(NCCO)n1 | 7 | 1
O=C1CSC(c2cccc(Br)c2)N1c1ccc(Cl)cn1 (stereo not drawn) | -4 | -10
O=C(C1CCCN(C2CCN(Cc3cccnc3)CC2)C1)N1CC=CC1 (stereo not drawn) | 2 | 0
CN(C)CCCNC(=S)Nc1ccc(-n2cnnn2)cc1 | 13 | 12
Cc1cc(C)c(SC(C)C(=O)NC(N)=O)c(C)c1 (stereo not drawn) | 8 | 5
Cc1ccc(OCCN(C)C(=O)C2CCC(=O)N(Cc3ccccn3)C2)cc1 (stereo not drawn) | 18 | 7
Cc1sc2nc(SCC(=O)NC3CCCCC3)n(Cc3ccco3)c(=O)c2c1C | 2 | 0
COc1ccc(C(=O)N2CCCC(CO)(Cc3cccc(Cl)c3)C2)cc1F (stereo not drawn) | 3&11 | 3&6
CCC(=O)Nc1sc2c(c1-c1nc3ccccc3s1)CCN(C(C)C)C2 | 36 | 36
CCC(C)C(NC(=O)Nc1ccc(F)cc1F)C(=O)Nc1nnc(-c2cccc(Br)c2)s1 (stereo not drawn) | 25 | 28
O=C(NCCc1cccc2cccnc12)C1CC(=O)N(c2ccccc2Cl)C1 (stereo not drawn) | 14 | 3
O=C(NCCn1ccnc1)Nc1cccc(S(=O)(=O)C(F)F)c1 | -7 | -7
COc1cc(C(=O)n2nc(C)c(Sc3ccc(C)cc3)c2C)cc(OC)c1OC | 1 | 2
CCC(C(=O)Nc1ccc(N2CCC(Cc3ccccc3)CC2)c(C(=O)N2CCCC2)c1)c1ccccc1 (stereo not drawn) | 18 | 17
Cc1ccoc1C(=O)NC1CC(=O)N(Cc2cccc3ccccc23)C1 (stereo not drawn) | 1 | 0
COc1ccc(C)c2sc(N(CCCn3ccnc3)C(=O)Cc3ccc(F)cc3)nc12 | -13 | -19
O=C1CCCN1CC1CCN(C(=O)c2ccc(NCC3CCOC3)nc2)CC1 (stereo not drawn) | 8 | 4
CCC(C)=NNc1ccc(S(=O)(=O)N(CC)CC)cn1 | 0 | -2
COc1ccc(C=CC(=O)c2ccc(O)cc2)cc1O | 0 | 3
CCOC(=O)C1CCN(Cn2c(=O)n(C)c3ccncc32)CC1 | 2 | 0
COC(=O)CN(C)Cc1cccc(C(=O)Nc2nccs2)c1 | 6 | 7
O=[N+]([O-])c1ccc(CSc2ccc(-c3ccncc3)nn2)cc1 | 2 | -4
O=C(NCCn1nc(-c2cccnc2)ccc1=O)Nc1cccc(C(F)(F)F)c1 | 10 | 3
CCn1c(C2CCNCC2)nn(Cc2noc(C3CCCO3)n2)c1=O (stereo not drawn) | 2 | 1

SMILES | NPYLR7 ag | NPYLR7 ag max-min
Cc1nn(C)c(C)c1CN(C(=O)c1ccc(Cn2cnnn2)cc1)C1CC1 | 27 | 11
O=C(c1cn(Cc2ccc(F)cc2)nn1)N1CCCCO1 | 2 | -2
CO[C@H]1CN(C(=O)c2cnccn2)[C@H]2Cc3c(oc4ccccc34)[C@@H]1C2 | 17 | 26
CCOC(=O)c1nn(Cc2ccc(OC)cc2)c2c1CN(C(=O)C1CCCO1)CC2 (stereo not drawn) | -6 | -9
COc1ccc(CN2CCN(Cc3cnc(N(C)C)s3)CC2CCO)cc1C (stereo not drawn) | -6 | -9
C=C(C)Cn1c(=O)c2c(nc3n(C(C)c4ccccc4)c(C)cn23)n(C)c1=O (stereo not drawn) | -3 | -4
Nc1nccc(N2CCC(Cc3ccccc3Cl)(C(=O)O)CC2)n1 | 2 | 18
Cc1cnc(NC(=O)c2cccc(CN(C)Cc3snnc3C)c2)s1 | 1 | 15
COCCN1CC(CNc2nccc(-c3c(C)nn(C)c3C)n2)CC1=O (stereo not drawn) | 4 | 12
CCCCCCN(C(=O)c1ccc(F)cc1)C(C)c1nc2ccccc2c(=O)n1-c1ccccc1CC (stereo not drawn) | 23 | 28
COc1cc(Nc2nccc3c2cc(-c2cnn(C)c2)n3C)cc(OC)c1OC | 7 | -3
COc1ccc(S(=O)(=O)NCCSC(C)(C)C)c(Cl)c1Cl | 6 | 7
Cc1nn(-c2nc3ccccc3s2)c2c1C(=O)CC(C)C2 (stereo not drawn) | 4 | 1
O=C(COc1ncnc2sc3c(c12)CCCC3)NCCN1C(=O)CSC1=O | 2 | -2
C=CCN=c1scc(-c2ccc(F)cc2)n1N=Cc1ccc(C#N)cc1 | 5 | 4
Cc1ccccc1CSc1nccn(-c2ccc(F)c(F)c2)c1=O | 0 | 7
O=C1C(=O)N(CN2CCCC2c2cccs2)c2ccccc21 (stereo not drawn) | 12 | 9
N[C@@H](Cc1ccccc1)C(=O)OC1CCCC1 | 3 | 2
CCOc1cccc(C=C2SC(=S)NC2=O)c1OC | -6 | 15
O=C(Nc1ccc(C(F)(F)F)cc1)c1cc2ccccc2oc1=O | 0 | 5
O=C(COCc1ccccc1)N1CCC(n2c(C(F)(F)F)nc3ccccc32)CC1 | 3 | -2
COc1ccc(S(=O)(=O)N2CCN(c3nccc(-c4ccc(C(C)(C)C)cc4)n3)CC2)cc1 | 18 | 17
Cc1c(CCNS(=O)(=O)c2ccc(F)cc2)sc2nc(-c3ccc(F)cc3)nn12 | 2 | -1
O=S(=O)(Nc1ccc2nc(N3CCCC3)sc2c1)c1ccccc1C(F)(F)F | 7 | 17
N#Cc1cccc(CSc2nnc(N)s2)c1 | 11 | 8

SMILES | NPYLR7 ag | NPYLR7 ag max-min
CC(SCc1csc(-c2ccc(F)cc2)n1)C(=O)NC1CCS(=O)(=O)C1 (stereo not drawn) | 3 | -1
O=c1cc(O)c2sc3nc(-c4ccncc4)ccc3c2[nH]1 | 6 | 4
O=C(NCC1CCCN(Cc2cccc(F)c2)C1)c1cccc2ccccc12 (stereo not drawn) | 9 | 3
COc1ccccc1CN(C(=O)c1cccnc1SC)C1CC1 | -3 | -5
c1c(CN2CCC(c3nnc4n3CCCCC4)CC2)nn2c1CNCCC2 | -3 | -12
CSc1nnc2c(n1)OC(c1ccccc1Br)Nc1ccccc1-2 (stereo not drawn) | 0 | -1
COc1ccc(CNC(=O)c2cnn3c2NC(c2ccc(C)cc2)CC3C(F)(F)F)cc1 (stereo not drawn) | 23 | 4
CCc1nnc(C2CCN(C(=O)NC(C)(C)C)CC2)s1 | -5 | -2
COc1cc(OC)cc(C(=O)N(Cc2ccccc2)Cc2cccn2Cc2ccccc2Cl)c1 | 22 | 24
O=C(C=Cc1ccc(S(=O)(=O)N2CCOCC2)cc1)NC(=S)NCc1ccc2c(c1)OCO2 | -5 | -10
Cc1ccc(-c2nnc3ccc(SCC(=O)N4CCCCC4)nn23)cc1 | 6 | 15
O=C(c1ccccc1)N(CCCN1CCOCC1)c1nc2ccc(F)cc2s1 | -9 | -12
CC(c1ccccc1Cl)N1CCCC(O)C1 (stereo not drawn) | -3 | -3
COc1ccc(C(C)=O)cc1N1C(=O)C2C3C=CC(O3)C2C1=O (stereo not drawn) | 22 | 1
COc1cccc(-c2cnc(-c3ccncc3)nc2C2CCN(Cc3ccc(OC)c(C)c3)CC2)c1 | 12 | 7
COc1ccc(-n2c(=O)[nH]c3c(C(N)=O)nc(-c4cc(Br)ccc4OC)nc32)cc1 | 1 | -1
CC(C)CN(CC(=O)Nc1nc(CC(=O)N2CCN(c3cccc(Cl)c3)CC2)cs1)C(=O)c1ccc(Cl)cc1 | 15 | 17
COCCC(=O)NCC1Cc2cc(-c3cccc(C(=O)OC)c3)cc(Cl)c2O1 (stereo not drawn) | 1 | -2
COc1ccc(C(=O)N2CCN(c3nc(C)nc(C)c3Cc3ccccc3Cl)CC2)c(OC)c1 | 2 | 2
COc1ccccc1Cn1ccnc1SCC(=O)Nc1cccc([N+](=O)[O-])c1 | -4 | 4
CCCNC(=O)c1cccc(Nc2c(Oc3ccccc3F)cnn(-c3ccc(C)cc3)c2=O)c1 | 10 | 18
CN(C)CCNC(=O)CCc1nnc(-c2ccc(C(F)(F)F)cc2)[nH]c1=O | 6 | 2
CC1(C(=O)Nc2cccc3cccnc23)CCN1Cc1ccccc1OC(F)F (stereo not drawn) | 8 | 0
Cc1ccc(C2c3ccsc3CCN2CCC(=O)N2CCN(C(=O)c3cccc(F)c3)C(C)C2)cc1 (stereo not drawn) | 11 | 3
CCCCC(CC)C(=O)N1CCc2nc(-c3ccc(CC)cc3)[nH]c(=O)c2C1 (stereo not drawn) | 25 | 23

One compound at a time (already shown).
Shown for O=[N+]([O-])c1ccc(CSc2ccc(-c3ccncc3)nn2)cc1 = NPYLR7 ag = 2; NPYLR7 ag max-min = -4
Shown for Cc1ccoc1C(=O)NC1CC(=O)N(Cc2cccc3ccccc23)C1 (stereo not drawn) = NPYLR7 ag = 1; NPYLR7 ag max-min = 0

Next structures:
SMILES | NPYLR7 ag | NPYLR7 ag max-min
O=C(c1cccc(CC2CCNCC2)c1)N1CCC(C(F)(F)F)CC1 | 4 | -7
CSc1ncc(Cn2cnc(-c3ccccc3)c2-c2nccn2C)n1C | -4 | -8
COc1ccc(NC(=O)N2CCN(C(C(=O)NCc3ccccn3)C3CCCC3)CC2)cc1 (stereo not drawn) | -7 | -2
CCCC(=O)N1CCN(c2ccc(Nc3ccncc3)nn2)CC1 | 3 | 2
Cc1nn(C)c(C)c1CC(=O)Nc1ccccc1C(C)C | 3 | 2
Cc1ccc(-c2ccc(C(=O)NCCSc3nncn3C)cc2)o1 | 20 | 8
CN1C(=O)NC(c2ccccc2C(F)(F)F)C2=C1CN(C1CCN(Cc3ccccc3)CC1)C2=O (stereo not drawn) | -2 | 2
CC(C)c1ncc(CN2CCCC(CCc3cccc(C(F)(F)F)c3)C2)cn1 (stereo not drawn) | 4 | 3
CCOC(=O)c1c(NC(=O)CC)sc(C(=O)N2CCCCC2)c1C | 7 | 5
CC(=O)Nc1nc(SCCC(=O)O)n[nH]1 | 8 | 1
COCc1cc(CNC(=O)C2COc3ccccc3O2)[nH]n1 (stereo not drawn) | 15 | 8
CS(=O)(=O)OC12CC3CC(CC(C#N)(C3)O1)C2 | 4 | 0
Cc1csc(SCC(=O)Nc2cc(C(C)(C)C)no2)n1 | 3 | 4
CC(C)CC1C2=C(CC(C)(C)CC2=O)OC(=N)C1C#N (stereo not drawn) | 5 | 3
COC(=O)C1=NNC2C(=O)N(c3ccc(Cl)c(Cl)c3)C(=O)C12 (stereo not drawn) | 2 | -2
COC(=O)c1ccc(-c2c(Nc3ccccc3C)oc3c2c(=O)n(C)c(=O)n3C)cc1 | -1 | -2
Cc1cccc(-n2nc(C(=O)NCc3ccncc3)c(=O)n(Cc3ccccc3Cl)c2=O)c1 | 4 | 10

Already shown: entries from further up.
SMILES | NPYLR7 ag | NPYLR7 ag max-min
COc1ccc(C(=O)N2CCN(c3nc(C)nc(C)c3Cc3ccccc3Cl)CC2)c(OC)c1 | 2 | 2
COc1ccccc1Cn1ccnc1SCC(=O)Nc1cccc([N+](=O)[O-])c1 | -4 | 4
CCCNC(=O)c1cccc(Nc2c(Oc3ccccc3F)cnn(-c3ccc(C)cc3)c2=O)c1 | 10 | 18
CN(C)CCNC(=O)CCc1nnc(-c2ccc(C(F)(F)F)cc2)[nH]c1=O | 6 | 2
CC1(C(=O)Nc2cccc3cccnc23)CCN1Cc1ccccc1OC(F)F (stereo not drawn) | 8 | 0
Cc1ccc(C2c3ccsc3CCN2CCC(=O)N2CCN(C(=O)c3cccc(F)c3)C(C)C2)cc1 (stereo not drawn) | 11 | 3
CCCCC(CC)C(=O)N1CCc2nc(-c3ccc(CC)cc3)[nH]c(=O)c2C1 (stereo not drawn) | 25 | 23
O=C(c1cccc(CC2CCNCC2)c1)N1CCC(C(F)(F)F)CC1 | 4 | -7
CSc1ncc(Cn2cnc(-c3ccccc3)c2-c2nccn2C)n1C | -4 | -8
COc1ccc(NC(=O)N2CCN(C(C(=O)NCc3ccccn3)C3CCCC3)CC2)cc1 (stereo not drawn) | -7 | -2
CCCC(=O)N1CCN(c2ccc(Nc3ccncc3)nn2)CC1 | 3 | 2
Cc1nn(C)c(C)c1CC(=O)Nc1ccccc1C(C)C | 3 | 2
Cc1ccc(-c2ccc(C(=O)NCCSc3nncn3C)cc2)o1 | 20 | 8
CN1C(=O)NC(c2ccccc2C(F)(F)F)C2=C1CN(C1CCN(Cc3ccccc3)CC1)C2=O (stereo not drawn) | -2 | 2
CC(C)c1ncc(CN2CCCC(CCc3cccc(C(F)(F)F)c3)C2)cn1 (stereo not drawn) | 4 | 3
CCOC(=O)c1c(NC(=O)CC)sc(C(=O)N2CCCCC2)c1C | 7 | 5
CC(=O)Nc1nc(SCCC(=O)O)n[nH]1 | 8 | 1
COCc1cc(CNC(=O)C2COc3ccccc3O2)[nH]n1 (stereo not drawn) | 15 | 8
CS(=O)(=O)OC12CC3CC(CC(C#N)(C3)O1)C2 | 4 | 0
Cc1csc(SCC(=O)Nc2cc(C(C)(C)C)no2)n1 | 3 | 4
CC(C)CC1C2=C(CC(C)(C)CC2=O)OC(=N)C1C#N (stereo not drawn) | 5 | 3
COC(=O)C1=NNC2C(=O)N(c3ccc(Cl)c(Cl)c3)C(=O)C12 (stereo not drawn) | 2 | -2
COC(=O)c1ccc(-c2c(Nc3ccccc3C)oc3c2c(=O)n(C)c(=O)n3C)cc1 | -1 | -2
Cc1cccc(-n2nc(C(=O)NCc3ccncc3)c(=O)n(Cc3ccccc3Cl)c2=O)c1 | 4 | 10

From PubChem
